D2 agonist: activates the human D2 dopamine receptor; P14416; DiscoveRx PathHunter D2 beta-arrestin, luminescence, 90 min; 100% = 57 uM dopamine signal; activation, % (no concentration beside the values); 360,000 tested, 0.084% active; in the data active = activation above about 40%; inconclusive = about 15% to 40%; inactive = below about 15%; further: compound concentration not given in the record; the text of the record calls up to 30% inactive
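DiscoveRx PathHunter D2 beta-arrestin cells (2,100/well) attached overnight, then compound-stimulated 90 min at 37 C in HBSS/10 mM HEPES/0.1% Tween-20 buffer; beta-galactosidase complementation read by luminescence after 1 h at ambient temperature. Dopamine 57 uM final (EC100) as control.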
CtBP-E1A inh: blocks the CtBP interaction with E1A; AlphaScreen GST-E1A/His-CtBP binding, 1536-well; hits give low values; control for the full effect not named in the record; activity change, % (no concentration beside the values); 340,000 tested, 0.49% active; AID 651724; in the data active means activity change below about -65%; inconclusive means about -30% to -65%; inactive means above about -30%; further: on the % scale 0 is the no-effect control and ±100 the full control effect; compound concentration not given in the record
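Steps: dispense buffer (Tris pH 8.0, NaCl 300 mM, TCEP 1 mM, BSA, Tween 20); add 5X protein mix (GST-E1A, His-CtBP, 125 nM each); pin 23 nL compound; 2 h at 37 °C, dark; add 5X beads (50 ug/mL); 1 h; read.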
Six1-Eya2 inh: inhibitors of human Six1/Eya2 interaction. Q15475+O00167. AlphaScreen GST-Six1/His-Eya2 binding, biochemical; hits give low values; control for the full effect not named in the record. activity change, % (no concentration beside the values). 360,000 tested, 0.56% active; in the data active = activity change below about -65%; inconclusive = about -30% to -65%; inactive = above about -30%; further: on the % scale 0 is the no-effect control and ±100 the full control effect; compound concentration not given in the record
Target sequence (O00167 whole entry, looked up): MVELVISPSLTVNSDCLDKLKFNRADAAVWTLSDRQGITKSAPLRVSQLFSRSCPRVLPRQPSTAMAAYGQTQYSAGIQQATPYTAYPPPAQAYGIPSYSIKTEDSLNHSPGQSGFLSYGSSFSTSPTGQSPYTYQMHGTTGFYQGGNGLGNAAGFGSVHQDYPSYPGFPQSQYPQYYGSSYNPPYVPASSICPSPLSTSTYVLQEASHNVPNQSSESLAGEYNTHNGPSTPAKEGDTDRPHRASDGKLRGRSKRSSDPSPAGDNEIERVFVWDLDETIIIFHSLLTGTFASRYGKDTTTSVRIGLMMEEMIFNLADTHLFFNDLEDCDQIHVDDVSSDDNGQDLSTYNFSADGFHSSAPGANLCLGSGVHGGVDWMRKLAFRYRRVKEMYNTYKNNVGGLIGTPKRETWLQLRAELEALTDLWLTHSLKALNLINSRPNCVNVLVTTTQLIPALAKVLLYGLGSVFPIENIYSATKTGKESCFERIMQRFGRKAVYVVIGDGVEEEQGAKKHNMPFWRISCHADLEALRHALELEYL
Target sequence (Q15475 whole entry, looked up): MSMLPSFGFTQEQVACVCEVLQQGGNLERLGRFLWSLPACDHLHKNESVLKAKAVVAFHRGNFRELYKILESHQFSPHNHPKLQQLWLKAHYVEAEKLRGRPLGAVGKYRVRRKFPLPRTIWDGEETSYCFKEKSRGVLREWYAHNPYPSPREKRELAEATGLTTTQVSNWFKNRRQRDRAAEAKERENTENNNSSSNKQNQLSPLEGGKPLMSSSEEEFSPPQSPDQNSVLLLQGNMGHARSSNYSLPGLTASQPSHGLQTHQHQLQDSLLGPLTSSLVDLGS
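AlphaScreen luminescence read after one hour at 37 °C in darkness. Pin-transferred compounds met GST-Six1 and His-Eya2 protein (5X stock 250 nM/500 nM) plus glutathione donor and Ni-chelate acceptor beads (5X, 50 ug/mL).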
D2 potentiator: positive allosteric modulators of human D2 dopamine receptor; potentiation, % (test concentration not listed); P14416; 360,000 tested, 0.23% active; DiscoveRx D2 beta-arrestin cells, luminescence, 90 min; 100% = 57 uM dopamine signal; active = potentiation of 50% or more; inconclusive = 30% to 50%; inactive = 30% or less;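 further: compound concentration not given in the record; tested on top of an EC20 dose of dopamine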
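PathHunter beta-arrestin assay in DiscoveRx D2 cells. Compounds were added with an EC20 of dopamine (50 nM final) for 90 min at 37 deg C. Luminescence was read 1 h after detection reagent, with 57 uM dopamine as the EC100 control.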
gsp agonist: gsp mutant agonism; gsp mutant cells, cAMP HTRF, 30 min; control for the full effect not named in the record; Potency, µM (doses to about 76.9 µM), for the others: at the top dose activation (cAMP increase), actives largely listed as activators; 340,000 tested, 0.13% active; AID 624287; active = well fitted activation curve with a large enough effect; inconclusive = small, poorly fitted or top-dose-only effect, or another doubt; inactive = no such curve, though single readings can be large or run the other way; cell line not stated here;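 further: phosphodiesterase inhibitor Ro 20-1724 added with compounds to block cAMP breakdown; potency means the concentration at half of the fitted maximal effect; nearly all actives have a fitted effect of over 60% in size; about a fifth of the inactives were tested at one dose only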
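Cells stably selected in G418 were plated at 2000/well, grown 16-24 hr, then given compounds in DMSO with the PDE inhibitor […] (300 uM solution added) for 30 min at 37C; cAMP was read by HTRF.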
gsp antag: antagonizes gsp, the McCune-Albright syndrome mutation. 340,000 tested, 0.4% active. Potency, µM (highest dose often 76.9 µM), for the others: top-dose activity change, negative = inhibition, actives largely listed as inhibitors. gsp-mutant cells, cAMP HTRF, 30 min; control for the full effect not named in the record; active = falling curve of any shape with a large fitted effect; inconclusive = falling curve, mostly with a smaller effect; inactive = flat or rising curve; cell line not stated here;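 further: intracellular cAMP measured with PDE inhibitor Ro 20-1724 present during compound exposure; potency means the concentration at half of the fitted maximal effect; on the % scale 0 is the no-effect control and ±100 the full control effect; nearly all actives have a fitted effect of over 65% in size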
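G418-selected cells were plated in DMEM/10% FBS for 16-24 h at 37C, then treated with compounds plus the PDE inhibitor […] (300 uM solution added) for 30 min at 37C. Intracellular cAMP was measured by HTRF after 30 min lysis at room temperature.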
* hit, by the source's call; ? = inconclusive; / = not tested or not shown; [ ] = dose if it differs, or a comment. Not all compounds are listed; count on the stated rates, not on these rows.

Compound	D2 agonist	CtBP-E1A inh	Six1-Eya2 inh	D2 potentiator	gsp agonist	gsp antag
Cc1c(N=Nc2c(O)n(-c3ccc(Br)cc3)c(=O)[nH]c2=O)c(=O)n(-c2ccccc2)n1C	-1.7	-94*	-92*	-13	13%[15.4 µM]	8%
O=C(Nc1nnc(SCc2ccccc2Cl)s1)C1COc2ccccc2O1 (centres undefined)	-3.0	-1	-2	-13	-2%	?
C=CCn1c(O)c(C=Nc2ccc(OC)cc2C)c(=O)[nH]c1=O	-2.6	8	6	2	?	15%
COc1ccc(C2SCC(=O)Nc3c2c(C)nn3C2CCOC(C)(C)C2)cc1 (centres undefined)	-1.0	-1	-2	4	10%	5%
O=[N+]([O-])c1cccc(CN2CCN(Cc3ccc(Br)cc3)CC2)c1	-2.3	-10	-20	-4	-77%[inhibitor]	5%
Cc1cc(OCC(=O)N2CCC(C(=O)NCC(C)C)CC2)c2c3c(c(=O)oc2c1)CCCC3	1.0	8	0	-2	-11%	0%
CC(C)c1ccc(N=Nc2c(O)[nH]c(=O)[nH]c2=O)cc1	-2.7	0	21	-4	-69%[inhibitor]	-6%
O=c1[nH]c(O)c(C=Nc2ccc(Cl)cc2Cl)c(=O)[nH]1	-0.4	5	1	0	-42%[inhibitor]	7%
COC(=O)C1=C(c2ccc(F)cc2F)C[C@@H]2CC[C@H]1N2C(=O)NC1Cc2ccccc2C1	-2.1	-2	-1	-13	/	-10%
Cc1ccc(NC(=O)CCCn2c(=O)oc3ccccc32)c(O)c1	-0.7	0	3	-11	5%	-1%
Cc1ccccc1C1=NCC(=O)N(CC(=O)N2CCCCC2)c2sc(C)c(C)c21	-5.1	-5	-1	-8	-29%	7.1µM*
CN(C)c1ccc(CN2CC=C(c3ccc(F)cc3)CC2)cc1	-1.8	?	?	-19	25%	8%
O=C1Nc2ccc(Br)cc2C(c2ccccc2)=NC1O (centres undefined)	-8.3	/	6	-6	14%	-8%
CCOC(=O)N(c1ccccc1)P1(=S)OCCO1	-4.3	-2	11	1	21%	1%
CCCSP1(=S)NCCCO1 (centres undefined)	-1.3	-2	-3	-5	0%	9%
COc1ccc(CN2Cc3cnnn3-c3ccccc3C2c2ccccc2)cc1 (centres undefined)	-1.9	-21	-8	-2	/	-8%
N=c1c2c(n(Cc3ccc(Cl)cc3Cl)c3c1CCC3)CCCC2	-4.9	-7	-1	-11	?	6%
CC1CN=C(NCc2ccccc2Cl)S1 (centres undefined)	-2.5	3	7	-1	0%	4%
OC1(c2ccccc2F)CC2CCC(C1)N2CCN1CCOCC1 (centres undefined)	-1.5	-1	-17	2	-31%[inhibitor]	14%
CCN1C[C@]2(CO)CC[C@H](OC)[C@@]34C5C[C@H]6[C@H](OC)C5[C@](O)(C[C@H]6OC)[C@@](O)(C(OC)C23)[C@@H]14 (some centres undefined)	4.1	11	0	-14	/	7%
CC(C)c1ccc(N=Cc2c(O)n(C3CC3)c(=S)[nH]c2=O)cc1	-9.6	0	2	3	2%[15.4 µM]	-23%
O=C1NC(=O)C(C/C=C/c2ccccc2)C(=O)N1	-4.7	-1	-3	-14	-3%	-12%[15.4 µM]
COC(=O)C1=C(c2cccc(C#N)c2)C[C@@H]2CC[C@H]1N2C(=O)NCCOc1ccccc1	-6.0	1	9	-8	/	-5%
CC1=C2C(=O)C3C(CC=C4CC(O)CCC43C)C2CCC12OC1CC(C)CNC1C2C (centres undefined)	-4.2	7	17	-3	-42%[inhibitor]	-5%
COC(=O)C1=C(c2cccc(OCc3ccccc3)c2)C[C@@H]2CC[C@H]1N2C(=O)NCCOc1ccc(OC)cc1	-2.4	-14	-23	-7	0%	-11%
O=[N+]([O-])c1cccc(CCl)c1	-6.4	2	0	-30	/	8%
Cc1ccc2c(c1)C1CN(C)CCC1N2C(=O)c1ccc(Br)o1 (centres undefined)	-2.7	-4	5	-7	5%	3%
CN1C(=O)N(C)C(=O)C2(Cc3cc(NC(=O)c4ccc(F)cc4)ccc3N3CCCC32)C1=O (centres undefined)	-3.0	0	-14	-5	9%[15.4 µM]	-6%
CN(C(=O)Cc1ccc2c(c1)OCO2)C1CCCN(Cc2ccccc2F)C1 (centres undefined)	-0.4	2	-2	-6	0%	10%
O=C(O)C1C2CCC(O2)C1C(=O)Nc1ccc(F)c(F)c1 (centres undefined)	-4.2	9	-1	0	0%	15%

Looked up by compound from the list above (two):
Compound	D2 agonist	CtBP-E1A inh	Six1-Eya2 inh	D2 potentiator	gsp agonist	gsp antag
OC1(c2ccccc2F)CC2CCC(C1)N2CCN1CCOCC1 (centres undefined)	-1.5	-1	-17	2	-31%[inhibitor]	14%
CCOC(=O)N(c1ccccc1)P1(=S)OCCO1	-4.3	-2	11	1	21%	1%

Further structures:
Compound	D2 agonist	CtBP-E1A inh	Six1-Eya2 inh	D2 potentiator	gsp agonist	gsp antag
CCC(=O)c1ccc(OC)c(OC)c1	-4.9	-23	1	-32	/	-3%
CCOP(=O)(OCC)/C(C#N)=C/c1ccc(-c2ccc(F)cc2F)o1	-2.8	/	-4	-4	-119%[inhibitor]	-3%
Nc1ccccc1N=Cc1c(O)n(CCC2=CCCCC2)c(=O)[nH]c1=O	-3.3	-9	-3	-5	-30%[inhibitor]	-1%
Nc1nc(SCc2ccc(Cl)cc2Cl)n[nH]1	2.7	0	7	-1	-62%[inhibitor]	-4%
Cc1nonc1OCCNc1ccc([N+](=O)[O-])c2cccnc12	-5.6	-3	-17	-24	-2%	-29%
CN1CCN(c2ccc(C(N)=O)cc2N)CC1	-2.6	8	4	12	-4%	-12%
Cc1ccc(-n2nc(C)c3c2NC(=O)CSC3c2ccc3c(c2)OCO3)cc1 (centres undefined)	-2.6	8	3	-2	0%	-12%
OCC1CO1 (centres undefined)	-3.7	2	0	-4	/	7%
CCCCn1c(=O)c(C(=O)Nc2cccc(C)c2)c(O)c2ccccc21	-1.9	/	1	8	4%	5%
Cc1ccc(-n2c(O)c(C=Nc3ccccc3N)c(=O)[nH]c2=O)cc1C	-17	-12	-16	-37	-22%	-1%
CN1CCN(C(=S)SCC(=O)Nc2ccc(Cl)cc2C(=O)c2ccccc2)CC1	2.4	?	-29	-34	-7%	?
COC(=O)C1=C(c2ccc(F)cc2OCc2ccccc2)C[C@@H]2CC[C@H]1N2C(=O)NC1Cc2ccccc2C1	-1.3	-16	-5	-18	-28%	-7%
Cc1nn(Cc2ccccc2)c(Cl)c1C(=O)OCC(=O)Nc1cccc2ccccc12	-1.5	-13	5	-9	-34%[inhibitor]	0%
O=C(Cn1ncc2c3ccccc3n(Cc3ccccc3F)c2c1=O)N1CCC2(CC1)OCCO2	-2.6	7	12	-19	17%	-5%
COC(=O)CN1C(=O)C2(C(C(=O)OC)=C(N)Oc3ccccc32)C2=C1CC(C)(C)CC2=O (centres undefined)	-1.9	3	0	-4	-30%	5%
CN1CCCC1c1ccc(=O)[nH]c1 (centres undefined)	-0.5	3	7	-7	-4%	1%
CCN(CC)C(=O)Oc1cc2c(-c3cc4cccc(OC)c4o3)cc(=O)oc2cc1C	0.4	7	2	-3	?	6%
COc1ccccc1Cn1c(SCC#N)nc2cc(C(=O)N3CCC4(CC3)OCCO4)ccc2c1=O	0.2	-2	-5	-1	-2%	-6%
CCC1([N+](=O)[O-])COP(N)(=O)OC1 (centres undefined)	-1.2	-2	12	4	-11%	0%
Cc1ccc(C2N(c3cc(C)on3)C(=O)C3CCCN32)cc1 (centres undefined)	-3.3	2	6	13	2%	13%
CC(=NCCN1CCOCC1)c1c(O)n(C2CCCCC2)c(=O)[nH]c1=O	-6.2	-4	-1	-7	2%	1%
O=C(N/N=C/c1c(O)n(-c2ccccc2)c(=S)[nH]c1=O)c1ccccc1	-3.8	-89*	-92*	-12	0%[15.4 µM]	9%
S=C(NCCc1ccccc1)N1Cc2ccccc2-n2nncc2C1	-8.0	3	6	-10	-4%	/
O=C(NC(Cc1ccccc1)C(=O)N1CCC2(CC1)OCCO2)C1CCCCC1 (centres undefined)	-4.7	3	6	1	0%	9%
CCN1C[C@]2(COC)CC[C@H](O)[C@@]34C5C[C@@H]6[C@@H](OC)C[C@@](O)(C5[C@H]6O)[C@](O)([C@@H](OC)C23)[C@@H]14 (some centres undefined)	3.5	6	5	7	/	19%
Cc1cccc(NP(=O)(Oc2ccccc2)Oc2ccccc2)c1C	-5.5	4	7	10	-1%[15.4 µM]	-31%
C=CC[C@@H](CC(=O)N(CCO)Cc1ccccc1)C(=O)NC[C@H](OC(=O)[C@@H](CC=C)CC(=O)OC(C)(C)C)c1ccccc1	5.2	-9	0	-3	15%	-19%
CC(=NCC1CCCO1)c1c(O)n(-c2ccc(Cl)cc2)c(=O)[nH]c1=O (centres undefined)	-2.7	3	-2	-6	-4%	5%
Cc1ccc(-c2nc(N3CCOCC3)s[n+]2-c2ccccc2)cc1	-3.2	-19	-1	-10	?	1%
O=C1NCCN2CCCC12 (centres undefined)	-3.1	-2	-3	-9	-24%	21%
CCC(C)N1C(=O)/C(=C\c2cc3c4c(c2)CCCN4CCC3)C(=O)NC1=S (centres undefined)	-5.0	-1	-13	-3	-41%[inhibitor]	3%
Cn1c(=O)cc(OCC(=O)N2CCN(C3CCCCC3)CC2)c2ccccc21	-2.8	2	2	-9	-5%	-5%
Clc1ccc2nc3c(c(-c4ccccc4)c2c1)CNCC3	2.4	5	-17	-3	19%	1%
O=c1[nH]c(=S)n(CCC2=CCCCC2)c(O)c1/C=N/N1CCOCC1	-3.6	/	-1	-23	-4%	-18%
CCN(CC)P(=O)(c1nccn1C)N(CC)CC	-2.2	/	10	-4	-55%[inhibitor]	-1%
COc1ccc2c(c1)C(c1ccc(N(CCCl)CCCl)cc1)=NCC2	-4.6	-14	-14	-14	-39%[inhibitor]	-12%
CC1(C)C2CC=C(CN3CCOCC3)C1C2 (centres undefined)	-2.9	8	2	-15	-45%[inhibitor]	9%
COC(=O)CN(c1ccc2c(c1)OCCO2)S(=O)(=O)c1ccccc1	0.6	-1	-9	-3	?	1%
C[C@]12CC[C@H](O)CC1=CCC1C2CC[C@@]2(C)C1C[C@@H](O)[C@@H]2O (some centres undefined)	-3.3	4	5	-1	-1%[15.4 µM]	10%
COc1ccc2c(c1)c(C(=O)O)c(C)n2C(C)C	-4.6	-4	2	-6	28%	-3%
Cc1ccc(N/N=C/c2c(O)n(-c3ccccc3)c(=O)[nH]c2=O)cc1	-12	6	-4	-12	-12%[15.4 µM]	0%

Source: PubChem
